# Screening results: PubChem, Johns Hopkins Ion Channel Center
# KCNQ2 enhance: KCNQ2 (rat) channel potentiation. 310,000 compounds, 0.54% hits. AID 2239. CHO-K1 KCNQ2, FluxOR thallium flux fluorescence; hits give high values. O88943. B-score at 10 µM;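 active = fluorescence ratio B-score at least 3 SD of library B-scores, with initial fluorescence B-score within 3 SD, cut at about 5.3 in these data; same plate scores as AID 2156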;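 note: B-score of peak minus minimum over baseline fluorescence ratio after K+ and Tl+ stimulus; positive B-score means potentiation of KCNQ2 with more thallium influx and brighter signal; only the inactives scoring about 0 or higher are listed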
# Target sequence (O88943 whole entry, looked up): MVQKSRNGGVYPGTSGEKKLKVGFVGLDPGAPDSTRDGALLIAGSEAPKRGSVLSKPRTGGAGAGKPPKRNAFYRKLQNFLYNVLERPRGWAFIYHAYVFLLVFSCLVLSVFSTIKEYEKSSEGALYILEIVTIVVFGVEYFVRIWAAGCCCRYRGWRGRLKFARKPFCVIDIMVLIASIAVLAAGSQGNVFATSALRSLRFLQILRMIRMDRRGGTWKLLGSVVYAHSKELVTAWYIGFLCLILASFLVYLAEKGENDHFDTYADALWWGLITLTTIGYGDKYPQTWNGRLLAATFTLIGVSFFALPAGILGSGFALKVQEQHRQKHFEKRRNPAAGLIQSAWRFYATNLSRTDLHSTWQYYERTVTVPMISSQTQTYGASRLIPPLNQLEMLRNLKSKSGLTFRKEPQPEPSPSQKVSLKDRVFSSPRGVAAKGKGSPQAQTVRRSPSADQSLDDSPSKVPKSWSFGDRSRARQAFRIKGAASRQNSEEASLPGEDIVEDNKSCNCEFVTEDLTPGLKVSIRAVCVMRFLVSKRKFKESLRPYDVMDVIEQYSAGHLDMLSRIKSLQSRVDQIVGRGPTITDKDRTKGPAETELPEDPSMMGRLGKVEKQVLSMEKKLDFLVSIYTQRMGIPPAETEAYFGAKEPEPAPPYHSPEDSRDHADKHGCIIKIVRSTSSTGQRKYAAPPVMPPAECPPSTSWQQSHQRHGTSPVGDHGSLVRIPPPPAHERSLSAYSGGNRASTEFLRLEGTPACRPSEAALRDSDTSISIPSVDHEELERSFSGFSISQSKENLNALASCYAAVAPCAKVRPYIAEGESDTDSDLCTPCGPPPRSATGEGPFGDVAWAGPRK
# KCNQ2 enhance baseline: further read-out of KCNQ2 enhance, marked with its call; B-score; compound at 10 µM; measured here: initial fluorescence intensity artifact check;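 brightness before thallium and not channel activity; 0 = typical well and far values either way flag optical interference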
# Numbers without * were called inactive. Only part of the results is shown; rates above refer to the full screens.
SMILES,KCNQ2 enhance,KCNQ2 enhance baseline
Cc1ccn2c(C(=O)CSc3ccccc3Cl)c(C)nc2c1,1.7,0.09
CCOC(=O)c1sc(NS(=O)(=O)c2ccc(F)cc2)nc1C,0.53,0.83
CC(=O)N(CCCN(C)C)c1nc2ccc(C)cc2s1,2.1,0.03
COCCN(C(=O)COC(=O)c1ccco1)c1c(N)n(Cc2ccccc2)c(=O)[nH]c1=O,0.2,0.71
Cc1ccc(C(=O)NCCSC(C)(C)C)cc1[N+](=O)[O-],0.04,-1.7
O=C(Nc1cccc(NC(=O)c2cccnc2)c1)c1cccnc1,1.6,-0.47
CCCCC(CC)CNC(=O)C1CC=CCC1C(=O)O (centres undefined),0.74,-0.63
C=CCn1c(SCc2nc3ccccc3c(=O)[nH]2)nc2ccccc2c1=O,0.42,2.2
Cc1ccc(C)c(NC(=S)NC(NC(=O)Cc2cccc3ccccc23)C(Cl)(Cl)Cl)c1 (centres undefined),1.7,-1.4
N#CNC(=Nc1cccc(C(F)(F)F)c1)SCc1ccc(C(=O)O)cc1,1.5,-1.3
Cc1cc(O)c(C(C)C)cc1NC(=O)c1ccc(Cl)cc1,2.5,0.51
CC1=NN(C(=O)c2ccc(Cn3cc(Br)c([N+](=O)[O-])n3)o2)C(O)(C(F)(F)F)C1 (centres undefined),1.4,-0.85
CCOc1ccccc1CNn1cnnc1,1.5,-1.4
C/C(=N\NC(=O)C1(C)CC1(Br)Br)c1ccc(C)cc1C (centres undefined),0.01,1.7
Nc1cccc(S(=O)(=O)Nc2ccc(Br)cc2)c1,1.2,-2.1
O=C(NCCc1ccccc1)c1ccnc(/C=N/O)c1,1.6,0.06
Cc1ccc2nc3c(cc(C(=O)NCCc4ccccc4)c(=N)n3CCN3CCOCC3)c(=O)n2c1,2.2,0.36
CCCC/C(C)=N\NC(=O)CNS(=O)(=O)c1ccc([N+](=O)[O-])cc1,0.04,-0.26
O=C(CSc1nc2ccccc2n1Cc1ccc(Cl)cc1)N/N=C/c1ccccc1C(=O)O,0.71,-0.59
COc1ccc(S(=O)(=O)NC2CC(=O)N(c3ccc(C)c(C)c3)C2)cc1C (centres undefined),1,0.49
O=C(Nc1ccc(Nc2ccccc2)cc1)c1cccc(F)c1,0.23,0.37
CN1CCN(C2OC(=O)c3ccccc32)CC1 (centres undefined),0.1,0.92
CC(NC(=O)Nc1ccc(F)cc1)c1ccc2c(c1)OCO2 (centres undefined),2,0.6
Cc1ccc(CS(=O)(=O)c2ncc(Cl)c(C(=O)Nc3nnc(C)s3)n2)cc1,17*,-0.69*
COc1ccc(S(=O)(=O)N2CCCC2=O)cc1N(C)S(C)(=O)=O,1.2,0.26
Cn1c(CCNC(=O)c2cccs2)nnc1SCC(=O)N1CCN(c2ccccc2)CC1,0.76,-0.02
COc1cc(C(=O)OCCN2CCOCC2)cc(OC)c1OC,0.72,0.03
COc1ccc(-c2nc3c(=O)n(C)c(=O)[nH]c3n2CCc2ccccc2)cc1,0.02,0.02
Cc1cc(-c2ccc(C)c(S(=O)(=O)Nc3cccc(CN4CCCC4)c3)c2)on1,0.03,0.8
O=C(NCc1cccs1)c1ccc2c(c1)ncn2C1CCCC1,0.23,0.98

# One compound at a time, as listed above.
# Record of O=C(Nc1ccc(Nc2ccccc2)cc1)c1cccc(F)c1 → KCNQ2 enhance = 0.23; KCNQ2 enhance baseline = 0.37
# Record of CC(NC(=O)Nc1ccc(F)cc1)c1ccc2c(c1)OCO2 (centres undefined) → KCNQ2 enhance = 2; KCNQ2 enhance baseline = 0.6

# (further entries)
SMILES,KCNQ2 enhance,KCNQ2 enhance baseline
COc1ccc2[nH]c(C(=O)N3CCN(c4ccccc4F)CC3)c(C)c2c1,0.06,0.15
COc1ccc(CCNC(=O)c2n[nH]c(=O)c3ccccc23)cc1,1.4,0.52
CC(=O)Oc1ccc(C(=O)OCC(=O)c2c(N)n(C)c(=O)n(C)c2=O)cc1OC(C)=O,0.72,-0.47
O=C(CS(=O)CC(=O)N(CC(=O)NC1CCCC1)c1ccccc1F)Nc1ccc(F)cc1 (centres undefined),0.59,0.08
CN(C)NC(=O)c1ccsc1NC(=O)c1ccc(S(=O)(=O)N(C)C)cc1,1.9,-0.68
Cc1ccc(/C=C/S(=O)(=O)NCC(=O)OCC(=O)N2CC(=O)Nc3ccccc32)cc1,0.22,-1.7
O=c1c2cc(NC(=S)N3CCCCC3)ccc2nc2n1CCCCC2,1.6,-2
COc1cc(/C=N/NC(=O)CNC(=O)c2cccs2)ccc1O,0.72,0.84
Cc1cc2[nH]c(=O)c(=O)[nH]c2cc1S(=O)(=O)N1CCN(c2cccc(C)c2C)CC1,1.6,1.8
CCCCNC(=O)c1ccccc1NC(=O)CN(c1ccccc1)S(=O)(=O)N(C)C,0.31,-0.01
COc1ccc(OC)c2[nH]c(=O)c(CCNC(=O)c3ccc(S(=O)(=O)N4CCCCC4)cc3)cc12,2.3,0.01
CCN(CC)S(=O)(=O)c1cccc(C(=O)NC2CCCCC2)c1,0.42,-1.1
Cc1cc(N2CCOCC2)nc2ccc(NC(=O)CCC(=O)N3CCN(c4cccc(C(F)(F)F)c4)CC3)cc12,0.75,0.71
Cc1ccc2c(c1)NC(=O)C(CC(=O)NCc1ccc(F)cc1)O2 (centres undefined),0.61,-0.45
c1ccc(-n2nnnc2-n2nnc3ccccc32)cc1,0.66,-1.8
CC(C)(C)C(=O)/C(C#N)=C/c1cccs1,0.01,1.6
COc1ccc(OC)c(C(=O)NC(CC(N)=O)c2ccc(N3CCC(N4CCCC4)CC3)c([N+](=O)[O-])c2)c1 (centres undefined),0.66,0.38
CC(=O)Nc1ccc(-c2csc(N/N=C\c3ccncc3)n2)cc1,0.72,-1.6
CCOC(=O)c1ccc(NC(=S)N2CCC(C(N)=O)(N3CCCCC3)CC2)cc1,0.26,0.09
Cc1cc(C(=O)C[N+]2(C)CCOCC2)c(C)n1-c1ccc(Br)cc1,0.1,-1.1
CNC(=O)C1C(=S)NC(N)=C(C#N)C1c1ccccc1 (centres undefined),2.7,0.26
O=C(Nc1nc2c(F)cc(F)cc2s1)c1ccco1,0.82,0.35
CN(C)C(=O)c1cn(N(C)c2ncc(C(F)(F)F)cc2Cl)c(=O)c2ccccc12,0.3,-0.02
Cc1ccc(-n2c(SCC(=O)Nc3cccc(S(=O)(=O)NC4=NCCCCC4)c3)nc3ccccc3c2=O)cc1,0.29,-0.23
Cc1cc(N2CCN(S(=O)(=O)Cc3ccccc3)CC2)n2ncnc2n1,0.98,-0.53
COc1ccccc1-n1nnnc1SCC(=O)Nc1cc(C)on1,1.8,-0.8
Cc1cc([N+](=O)[O-])ccc1NCc1ccccc1[N+](=O)[O-],0.28,-0.02
NC(=O)c1ccccc1OCC(=O)N1CCc2ccccc2C1,0.14,-0.28
COCCCC1CCN(Cc2cn[nH]c2-c2cc(OC)c(OC)c(OC)c2)CC1,0.23,1.4
O=C(CSc1ccc2nnc(-c3ccncc3)n2n1)Nc1nccs1,1,-0.68
O=C1CC[C@H](OCc2ccccc2)CCN1[C@H](CSc1ccccc1)Cc1ccccc1,0.01,-0.59
Cc1ccc(S(=O)(=O)NC(CC(C)C)C(=O)NCc2ccco2)cc1 (centres undefined),0.42,-0.01
CN(C(=O)c1ccccc1-c1ncc[nH]1)C1CCCN(Cc2ccccc2F)C1 (centres undefined),0.02,0.4
C=CCn1c(=O)c(C(=O)NCc2ccc3c(c2)OCO3)c(O)c2cc(OC)c(OC)cc21,0.67,-0.72
CCOC(=O)c1cc(NC(=O)CSCCO)ccc1Cl,1.9,-0.01
COc1cccc(N=c2oc3ccc(OC)cc3cc2-c2nc3ccccc3[nH]2)c1,2,-1.1
CCCCN=C1CC(C)(C)CC(=O)/C1=C(/O)CCC,2.6,-0.63
CC(=O)Nc1ccc(-c2nnc(SCC(=O)c3ccc4c(c3)Cc3ccccc3-4)n2C)cc1,0.74,-0.07
Cc1cccnc1NC(=O)CCCNC(=O)c1ccc(Cl)cc1,0.27,-0.9
CC(C)COc1ccc(C(=O)Nc2sc3c(c2C(=O)O)CC(C)(C)OC3)cc1,4.2,-0.33
O=C(C1CC1)N(CCN(C(=O)C1CC1)c1ccccc1)c1ccccc1,0.86,-2.6
COCCCn1c(=N)c(C(=O)NC2CCCCC2)cc2c(=O)n3ccccc3nc21,2.9,-0.56
COc1ccc(S(=O)(=O)N2CCOC2CNC(=O)C(=O)NCc2ccncc2)cc1OC (centres undefined),1.3,-0.66
CC(=O)c1cc2c(cc1NC(=O)c1ccco1)OCCO2,1.5,-1.3
O=C(c1ccc2c(c1)OCO2)N1CCN(c2ccccc2)CC1,0.03,-0.02
Cc1nc(-c2ccc(S(=O)(=O)Nc3ccc(S(N)(=O)=O)cc3)cc2)co1,0.33,-0.13
CCN(CC)C(=O)C1CCCN(Cc2ccccc2)C1 (centres undefined),0.1,1.6
O=C(NCc1ccccc1Cl)C1CCN(S(=O)(=O)c2ccc(-n3cnnn3)cc2)CC1,0.63,1.7
COc1ccccc1N1C(=O)C2CCC(c3ccccc3)CC2C1=O (centres undefined),0.04,-0.33
O=c1c2sccc2n(Cc2cc(=O)n3ccccc3n2)c(=O)n1-c1ccccc1,0.25,-1.1

# The results go on.
SMILES,KCNQ2 enhance,KCNQ2 enhance baseline
Clc1ccc(CNCCCSc2ncccn2)cc1Cl,1.2,0.8
Cn1c(=O)c2c(nc(CN3CCN(Cc4ccccc4)CC3)n2Cc2ccc(Cl)cc2)n(C)c1=O,0.04,1.2
Cc1cccc(-c2nn(-c3ccccc3)cc2C(=O)N(C)CC(=O)Nc2ccc(N3CCOCC3)cc2)c1,0.08,-0.65
Cc1csc(SCC(=O)Nc2ncc(Cl)c(C)c2Cl)n1,0.01,0.75
Cc1snc2sc(C(=O)c3ccc(F)cc3)c(N)c12,0.15,0.21
COC(=O)CNC(=O)C12CC3(C)CC(C)(CC(C)(C3)C1)C2,2,-0.04
CC(=O)Nc1ccc2c(c1)CCCN2C(=O)c1ccccc1,0.09,-0.74
Cc1cccc(CCNS(=O)(=O)c2cnc[nH]2)c1,0.05,2
CNC(=S)N/N=C/c1ccc(N(C)C)cc1,0.07,-1.7
CCOC(=O)c1ccccc1NC(=O)CSc1nc2ccccc2n1CC(=O)N1CCCC1,0.51,0.48

# 5 entries picked at random from the list so far, as already listed:
SMILES,KCNQ2 enhance,KCNQ2 enhance baseline
COC(=O)CNC(=O)C12CC3(C)CC(C)(CC(C)(C3)C1)C2,2,-0.04
Cn1c(=O)c2c(nc(CN3CCN(Cc4ccccc4)CC3)n2Cc2ccc(Cl)cc2)n(C)c1=O,0.04,1.2
Cc1snc2sc(C(=O)c3ccc(F)cc3)c(N)c12,0.15,0.21
Cc1cccc(CCNS(=O)(=O)c2cnc[nH]2)c1,0.05,2
Clc1ccc(CNCCCSc2ncccn2)cc1Cl,1.2,0.8

# New compounds follow.
SMILES,KCNQ2 enhance,KCNQ2 enhance baseline
Cc1cc(C)cc(Nc2nc3ccc(C)cc3n3cnnc23)c1,0.8,-0.52
CCOC(=O)c1cccc(NC(=O)COC)c1,2.2,-0.97
CCCS(=O)(=O)c1ccc(COC(=O)c2cccc(NC(=O)C(C)C)c2)cc1,1,1.5
CC1(C(=O)OCC(=O)NC(=O)c2ccccc2)CC1(Cl)Cl (centres undefined),0.14,0.08
CC(C)(C)c1ccc(S(=O)(=O)N(CCCN2CCOCC2)Cc2cccs2)cc1,1.4,-2.4
COc1ccc(C2(CNC(=O)c3cccc([N+](=O)[O-])c3)CCCCC2)cc1OC,0.28,-0.58
CC1=C(C(=O)OCCNC(=O)c2cccnc2)C(c2cccc([N+](=O)[O-])c2)C(C(=O)OCCN(C)C)=C(C)N1 (centres undefined),0.47,-0.25
Cc1nc2ccc(NC(=O)c3c(-c4ccccc4)noc3C)cc2s1,1.6,-0.03
CCC1=NN(C(=O)c2ccc(Br)cc2)C(O)(c2ccccc2)C1 (centres undefined),6*,-0.04*
CCN(CC)C(=O)Cn1cc(C(=O)C(=O)NCCc2ccc(S(N)(=O)=O)cc2)c2ccccc21,1.7,0.14

# Not a retest: entries from further up.
SMILES,KCNQ2 enhance,KCNQ2 enhance baseline
Cc1cc(C)cc(Nc2nc3ccc(C)cc3n3cnnc23)c1,0.8,-0.52
CCOC(=O)c1cccc(NC(=O)COC)c1,2.2,-0.97

# Remaining list, next part.
SMILES,KCNQ2 enhance,KCNQ2 enhance baseline
CCN(C1CCCCC1)S(=O)(=O)c1cc(C)ccc1OC,1.5,-0.23
C=C(C)Cn1c(SCC(=O)O)nnc1-c1ccc(OC)cc1,0.32,1.2
Cc1cccc(C)c1Nc1ncnc2ccccc12,0.93,0.13
N#CC1=C(N)Oc2cc3ccccc3cc2C1c1cccnc1 (centres undefined),0.56,0.98
COc1ccc2c(C(F)(F)F)cc(=O)oc2c1C,1.1,-0.86
CC(C)Oc1cccc(C(=O)NC(=S)Nc2ccccc2)c1,1.2,-0.14
COC(=O)CSc1nc(C2CC2)nc2ccccc12,0.05,1.4
O=C(c1ccc2c(c1)C(=O)N(Cc1ccco1)C2O)N1CCOCC1 (centres undefined),0.58,-0.19
CSCCC(NC(=O)c1ccc(C(C)(C)C)cc1)C(=O)O (centres undefined),0.75,0.54
COC(=O)CSc1nc(C)c(C)c(C)c1C(N)=O,1.9,-0.08
CN(C)c1ccc(C(=O)c2ccc(O)cc2O)cc1,0.06,1.6
Cn1c(SCc2ccc(Br)cc2)nc2ccccc2c1=O,1.1,-0.75
CCOc1cccc(C(=O)Nc2ccc(N3CCN(S(C)(=O)=O)CC3)cc2)c1,0.38,-0.17
O=C1CCCN1CCCNc1ccc2nnc(CCC(=O)N3CCN(c4ccc(F)cc4)CC3)n2n1,0.71,-0.3
CCCN(CCC)C(=O)CSc1nc2n[nH]c(C)c2c(=N)n1-c1ccc(OCC)cc1,0.48,-0.32
